Source: PubChem BioAssay (National Center for Advancing Translational Sciences (NCATS))
StopGo RLuc = FMDV 2A StopGo reporter, Renilla signal. HEK cells with a luciferase reporter of 2A StopGo recoding. Potency, µM (titrated, usually from 57.5 µM), inactives show top-dose signal change, negative = less light. actives 0.32% (n = 120,000); active means well fitted falling curve with a large enough effect; inconclusive means small, poorly fitted or top-dose-only effect; inactive means no such curve, though single readings can be large or run the other way; note: nearly all actives have a fitted effect of over 55% in size; overnight with compound
StopGo FLuc = lowers the firefly signal of an FMDV 2A StopGo reporter; AID 1745856; HEK cells with a luciferase reporter of 2A StopGo recoding; Potency, µM (top dose mostly 57.5 µM), without a hit: at the highest dose signal change, negative = less light; actives 0.23% (n = 120,000); active = well fitted falling curve with a large enough effect; inconclusive = small, poorly fitted or top-dose-only effect; inactive = no such curve, though single readings can be large or run the other way; note: nearly all actives have a fitted effect of over 60% in size; overnight with compound
* = called active by the depositor; & = joins results of further samples; [ ] = remark or other dose. % is set by controls: 0 for no effect and ±100 for the full control effect; potency is the fitted concentration of half-maximal effect. A portion of the library; the hit share may differ from the screen's.

How did CN(C)CCNC(=O)C(=O)NCC(c1cccnc1)N1CCN(c2ccc(F)cc2)CC1 (centres undefined) do in these assays?
StopGo RLuc: -1%; StopGo FLuc: -16%

What do the screens show for `O=C(c1ccc(Cl)cc1)N1CCCC(c2nc3ccccc3o2)C1` (centres undefined)?
StopGo RLuc: -7%; StopGo FLuc: -16%

How did COC(=O)c1ccc(C2c3c(-c4ccccc4O)n[nH]c3C(=O)N2Cc2ccncc2)cc1 (centres undefined) do in these assays?
StopGo RLuc: 2%; StopGo FLuc: -13%

Results for COc1cc(NC(=O)C2CCCN(S(=O)(=O)c3ccc4c(c3)CCCC(=O)N4)C2)cc(OC)c1 (centres undefined) ?
StopGo RLuc: 3%; StopGo FLuc: -1%

Results for CCCc1cc(C(=O)Nc2c(Cl)cccc2Cl)no1 ?
StopGo RLuc: 14%; StopGo FLuc: 0%

How did O=C(NCC(=O)N1CCN(S(=O)(=O)c2ccc3ccccc3c2)CC1)c1ccc2c(c1)OCO2 do in these assays?
StopGo RLuc: 1%; StopGo FLuc: -4%

What do the screens show for `CCc1ccccc1Nc1cc(C(=O)NC2CCC(C)CC2)c2ccccc2n1` (centres undefined)?
StopGo RLuc: 92%[activator]; StopGo FLuc: 114%[activator]

What do the screens show for `CCN(CC)S(=O)(=O)c1ccc(C)c(NS(=O)(=O)c2c(C)c(C)cc(C)c2C)c1`?
StopGo RLuc: -7%[1.06 µM]; StopGo FLuc: inconclusive

Results for O=C(COc1ccc2c(c1)CCC2)Nc1ccc(Cl)c([N+](=O)[O-])c1 ?
StopGo RLuc: 0%; StopGo FLuc: 20%

Results for CCc1ccc(NC(=O)Cn2c(=O)c3cccn3c3ccccc32)cc1 ?
StopGo RLuc: -19%&-8%; StopGo FLuc: -12%&-8%

Results for CN1CCN(C(=O)CN2C(=O)c3ccccc3C2c2cn(C)c3ccccc23)CC1 (centres undefined) ?
StopGo RLuc: -11%; StopGo FLuc: -5%

Results for CCOc1ccc(OCc2nc3ccc(OC)cc3[nH]2)cc1 ?
StopGo RLuc: -12%; StopGo FLuc: 60%[activator]

What do the screens show for `CCOC(=O)c1ccc2c(c1)N(Cc1cc(C)ccc1C)C(=O)c1ccccc1S2(=O)=O`?
StopGo RLuc: 12%; StopGo FLuc: -10%

What do the screens show for `COc1ccc2ncc(C#N)c(Nc3cc(OC)c(OC)c(OC)c3)c2c1`?
StopGo RLuc: 19%; StopGo FLuc: 23%

How did CN(CCO)c1cccc2c1S(=O)(=O)N(Cc1cn(Cc3cccc(F)c3)nn1)Cc1ccccc1O2 do in these assays?
StopGo RLuc: 141%[activator]; StopGo FLuc: -2%

What do the screens show for `COc1cc(/C=C/C(=O)Nc2cccc3cccnc23)ccc1OC(C)C`?
StopGo RLuc: 12%; StopGo FLuc: 0%

Results for Cc1ccccc1Nc1c(-c2ccc(Cl)s2)nc2c(C)cccn12 ?
StopGo RLuc: -10%; StopGo FLuc: 0%

Results for O=C(N[C@H](CO)c1ccccc1)C1CCC(CNS(=O)(=O)c2ccc(Cl)cc2)CC1 (some centres undefined) ?
StopGo RLuc: 12%; StopGo FLuc: -14%

Results for COc1ccccc1OC(C)C(=O)NC1CCCC1 (centres undefined) ?
StopGo RLuc: -1%; StopGo FLuc: 3%

What do the screens show for `O=C(NCC(=O)N1CCN(Cc2c(F)cccc2Cl)CC1)NCc1ccccc1`?
StopGo RLuc: 38%[activator]; StopGo FLuc: 0%

How did O=C1/C(=C/c2ccc(Br)cc2F)Cc2ccccc21 do in these assays?
StopGo RLuc: 1%; StopGo FLuc: 0%

How did Cn1c(=O)c2nc(SCC(=O)Nc3cc(Cl)cc(Cl)c3)n(C)c2n(C)c1=O do in these assays?
StopGo RLuc: -11%; StopGo FLuc: -5%

Results for Cc1ccc(NC(=O)[C@H](Cc2ccccc2)N2Cc3ccccc3C2=O)cc1 ?
StopGo RLuc: 20%; StopGo FLuc: -2%

How did Cc1ccccc1Nc1nc(-c2ccc([N+](=O)[O-])cc2)cs1 do in these assays?
StopGo RLuc: -7%; StopGo FLuc: 0%

What do the screens show for `CN(C(=O)c1ccc(N)cc1)C1CCCCC1`?
StopGo RLuc: -8%; StopGo FLuc: 48%[activator]

How did COc1ccc(-c2cn3nc(N4CCCC(C(=O)Nc5ccc(Cl)cc5C)C4)sc3n2)cc1 (centres undefined) do in these assays?
StopGo RLuc: -16%; StopGo FLuc: -16%

How did O=C(Nc1cc2c(cc1C(=O)c1cccc(Br)c1)OCCO2)c1ccccc1F do in these assays?
StopGo RLuc: -8%; StopGo FLuc: -6%

What do the screens show for `Cc1ccc(NC(=O)CCSc2nc(-c3ccco3)cc(C(F)(F)F)n2)cc1F`?
StopGo RLuc: -5%; StopGo FLuc: -6%

Results for COc1ccc(-c2noc(CCC(=O)Nc3cccc(C)c3C)n2)cc1OC ?
StopGo RLuc: -3%; StopGo FLuc: 1%

What do the screens show for `O=C(NC1CCCCCCC1)C1c2ccccc2C(=O)N1CCCN1CCCCC1` (centres undefined)?
StopGo RLuc: -9%; StopGo FLuc: -7%

Results for Clc1cccc(-c2noc(CSc3nc4ccccc4o3)n2)c1 ?
StopGo RLuc: -8%; StopGo FLuc: -3%

What do the screens show for `COc1ccc(-c2c(C)c3ccc(OS(=O)(=O)c4ccccc4)cc3oc2=O)cc1OC`?
StopGo RLuc: -18%; StopGo FLuc: -11%

Results for CCc1ccc(S(=O)(=O)c2cnc3ccccc3c2N2CCOCC2)cc1 ?
StopGo RLuc: 71%[activator]; StopGo FLuc: -17%

What do the screens show for `COCC(C)NC(=O)c1cccc2c(=O)c(C)c(-c3ccccc3)oc12` (centres undefined)?
StopGo RLuc: 6%; StopGo FLuc: 2%

How did COc1ccc(NC(C)=O)cc1NC(=O)c1nn(C)c(=O)c2ccccc12 do in these assays?
StopGo RLuc: 12%; StopGo FLuc: 17%

How did CC(=O)Nc1cccc(NC(=O)C2(c3cccs3)CCOCC2)c1 do in these assays?
StopGo RLuc: -2%; StopGo FLuc: -8%

4 entries picked at random from the list so far:
What do the screens show for `O=C(NC1CCCCCCC1)C1c2ccccc2C(=O)N1CCCN1CCCCC1` (centres undefined)?
StopGo RLuc: -9%; StopGo FLuc: -7%

How did COc1ccc(-c2cn3nc(N4CCCC(C(=O)Nc5ccc(Cl)cc5C)C4)sc3n2)cc1 (centres undefined) do in these assays?
StopGo RLuc: -16%; StopGo FLuc: -16%

Results for COc1ccc(-c2noc(CCC(=O)Nc3cccc(C)c3C)n2)cc1OC ?
StopGo RLuc: -3%; StopGo FLuc: 1%

How did COc1ccc(NC(C)=O)cc1NC(=O)c1nn(C)c(=O)c2ccccc12 do in these assays?
StopGo RLuc: 12%; StopGo FLuc: 17%

Carrying on.
What do the screens show for `COc1ccc(Cl)cc1NC(=O)c1c(NCc2cccnc2)sc2c1CCC(C)C2` (centres undefined)?
StopGo RLuc: -9%; StopGo FLuc: -7%

How did Nc1cccc(/C=C/C(=O)c2ccccc2)c1 do in these assays?
StopGo RLuc: 17%; StopGo FLuc: 191%[activator]

How did Cc1ccc(N(CC(=O)N2CCN(c3cc(Cl)ccc3C)CC2)S(=O)(=O)c2c(C)noc2C)cc1 do in these assays?
StopGo RLuc: 3%; StopGo FLuc: -16%

Results for COC(=O)CSc1nc2sc3c(c2c(=O)n1-c1ccc(C)cc1)CC(C(C)C)OC3 (centres undefined) ?
StopGo RLuc: -16%; StopGo FLuc: -12%

How did CCCCCOc1ccc(/C=C/C(=O)Nc2sc3c(c2C(=O)OCC)CCC3)cc1OC do in these assays?
StopGo RLuc: -15%; StopGo FLuc: -5%

How did CC(C)(C)NC(=O)NC(=O)CSc1nc2ccccc2c(=O)n1-c1ccc(F)cc1F do in these assays?
StopGo RLuc: -13%; StopGo FLuc: 8%

How did O=C(NC(=O)c1c(F)cccc1F)Nc1cc(Cl)c(OC(F)(F)C(F)C(F)(F)F)cc1Cl (centres undefined) do in these assays?
StopGo RLuc: -2%; StopGo FLuc: -11%

Results for Cc1cnc(NC(=O)c2csc(NC3CC3)n2)s1 ?
StopGo RLuc: inconclusive; StopGo FLuc: -31%

What do the screens show for `CCCCCCCCc1ccc(/C(C=[N+](C)C)=C/N(C)C)cc1`?
StopGo RLuc: inconclusive; StopGo FLuc: inconclusive

How did Cc1cccn2cc(CN3CCN(S(=O)(=O)c4ccccc4)CC3)nc12 do in these assays?
StopGo RLuc: -5%; StopGo FLuc: -6%

Results for CC1=CC(C)C2(COC(CCc3ccccc3)OC2)C(C)C1 (centres undefined) ?
StopGo RLuc: 8%; StopGo FLuc: 1%

How did Cc1ccccc1-c1nc(CS(=O)(=O)CC(=O)NC(C)c2ccccc2)c(C)o1 (centres undefined) do in these assays?
StopGo RLuc: 9%; StopGo FLuc: -21%

What do the screens show for `CC(C)Oc1ccc(CNC(=O)CCCn2c(=O)c3cccn3c3ccccc32)cc1`?
StopGo RLuc: 36%[activator]; StopGo FLuc: -4%

What do the screens show for `COc1ccccc1NC(=O)CSC1=Nc2ccccc2C2=NC(Cc3ccccc3)C(=O)N12` (centres undefined)?
StopGo RLuc: 20%; StopGo FLuc: -19%

How did Cc1cc(Cl)ccc1NC(=O)Cn1nnc2sc(-c3ccccc3)cc2c1=O do in these assays?
StopGo RLuc: -2%; StopGo FLuc: -15%

Results for c1coc(CN2CCN(Cc3ccc(OCc4ccncc4)cc3)CC2)c1 ?
StopGo RLuc: inconclusive; StopGo FLuc: inconclusive

What do the screens show for `CCc1ccc(NC(=O)CSc2nc3n[nH]c(C)c3c(=N)n2-c2ccc(C)cc2)cc1`?
StopGo RLuc: 1%; StopGo FLuc: -2%

Results for C/C(=N/Nc1cc(C(F)(F)F)ccc1Cl)c1ccccc1Br ?
StopGo RLuc: 14%; StopGo FLuc: 16%

Results for O=C1/C(=C/c2ccsc2)CCc2ccccc21 ?
StopGo RLuc: 9%; StopGo FLuc: 138%[activator]

How did Cc1cc(C)nc(Nc2nc(C)c3ccccc3n2)n1 do in these assays?
StopGo RLuc: -6%; StopGo FLuc: 11%

Results for Cc1ccc(C)c(-n2nnc(-c3nc(-c4ccccc4C)no3)c2C)c1 ?
StopGo RLuc: -2%; StopGo FLuc: 38%[activator]

What do the screens show for `O=C(O)CNC(=O)CNS(=O)(=O)c1ccccc1`?
StopGo RLuc: 2%; StopGo FLuc: 5%

Results for C/C=C/C=C/C(=O)Nc1ccccc1-c1cccs1 ?
StopGo RLuc: -13%; StopGo FLuc: 1%

Results for CCOc1ccc(NC(=O)CN2CCN(c3ccc(Cl)cc3)CC2)cc1 ?
StopGo RLuc: 13%; StopGo FLuc: -16%

What do the screens show for `COC(=O)CCc1cc2c(C)cc(=O)oc2cc1O`?
StopGo RLuc: 7%; StopGo FLuc: 13%

Results for C/C(=C/c1nc(N)n(Cc2ccccc2)c1Cc1ccccc1)Cn1[nH]c(=O)n(-c2ccccc2)c1=O ?
StopGo RLuc: -15%; StopGo FLuc: -1%

What do the screens show for `C/C(=N\NC(=O)Cc1cccs1)c1cccc2ccccc12`?
StopGo RLuc: 43%[activator]; StopGo FLuc: 28%

What do the screens show for `CCOc1ccc(CCNC(=O)Cn2c(C)c3cnn(-c4ccccc4)c(=O)c3c2C)cc1`?
StopGo RLuc: 17%; StopGo FLuc: 28%

What do the screens show for `CCCCn1c(Cn2ccnc2C)nc2cc(NC(=O)c3ccc(OC)cc3)ccc21`?
StopGo RLuc: 0%; StopGo FLuc: 50%[activator]

What do the screens show for `Cn1ncc2c(NCc3ccc(Cl)cc3)ncnc21`?
StopGo RLuc: -7%; StopGo FLuc: -11%

What do the screens show for `O=C(NCc1ccccc1)C1CCN(C(=O)/C=C/c2cccc(C(F)(F)F)c2)CC1`?
StopGo RLuc: -1%; StopGo FLuc: 9%

How did COc1ccc(C(=O)Nc2oc3ccccc3c(=O)c2-c2ccc(OC)cc2)cc1 do in these assays?
StopGo RLuc: 6%; StopGo FLuc: 42%[activator]

What do the screens show for `CCOC(=O)C(C)Oc1ccc2c(C)c(Cc3ccccc3)c(=O)oc2c1` (centres undefined)?
StopGo RLuc: 6%; StopGo FLuc: 3%

What do the screens show for `N#Cc1ccc2cc[nH]c2c1`?
StopGo RLuc: 13%; StopGo FLuc: 29%

Results for COc1cc(NS(=O)(=O)c2ccc3c(c2)CCN3S(C)(=O)=O)cc(OC)c1 ?
StopGo RLuc: -9%; StopGo FLuc: inconclusive

What do the screens show for `COc1ccc(CN2C(=O)c3oc4ccc(F)cc4c(=O)c3C2c2ccc(O)cc2)cc1` (centres undefined)?
StopGo RLuc: inconclusive; StopGo FLuc: inconclusive

Arranged by heavy-atom count (largest number first): some entries from above
What do the screens show for `COc1ccc(-c2c(C)c3ccc(OS(=O)(=O)c4ccccc4)cc3oc2=O)cc1OC`?
StopGo RLuc: -18%; StopGo FLuc: -11%

How did Cc1cccn2cc(CN3CCN(S(=O)(=O)c4ccccc4)CC3)nc12 do in these assays?
StopGo RLuc: -5%; StopGo FLuc: -6%

Results for O=C(COc1ccc2c(c1)CCC2)Nc1ccc(Cl)c([N+](=O)[O-])c1 ?
StopGo RLuc: 0%; StopGo FLuc: 20%

New compounds follow:
How did CC(C)C(=O)Nc1cc(Cl)ccc1Cl do in these assays?
StopGo RLuc: 82%[activator]; StopGo FLuc: 45%[activator]

Results for Cc1ccn2cc(CNC(=O)c3cccc(C(F)(F)F)c3)nc2c1 ?
StopGo RLuc: -8%; StopGo FLuc: -19%

How did O=C1C(=O)N(C2CC2)C(=O)N1Cc1ncc(-c2cccc(Cl)c2)o1 do in these assays?
StopGo RLuc: -3%; StopGo FLuc: 20%

Results for Cc1ccc(NC(=O)C2CCCN(S(=O)(=O)c3c(C)noc3C)C2)cc1 (centres undefined) ?
StopGo RLuc: 1%; StopGo FLuc: 8%

Results for CC(C)c1ccc(NC(=O)CCC2CCCC2)cc1 ?
StopGo RLuc: 24%; StopGo FLuc: 204%[activator]
